Source: PubChem BioAssay
RGS16-Gao: modulates binding between human RGS16 and Galphao. bead-based flow cytometry RGS16-Galphao binding, fluorescence; actives lie on both sides. 220,000 tested, 0.38% active. O15492+P09471. binding response (% of control), % at 10 µM;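 active = below 25% or above 175%, edge rows of some plates excepted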;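 also: Galphao activated by GDP with aluminum fluoride before binding; 100% = wells without compound and 0% = beads without RGS; some results beyond the cut were filed as inactive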
Target sequence (O15492 whole entry, looked up): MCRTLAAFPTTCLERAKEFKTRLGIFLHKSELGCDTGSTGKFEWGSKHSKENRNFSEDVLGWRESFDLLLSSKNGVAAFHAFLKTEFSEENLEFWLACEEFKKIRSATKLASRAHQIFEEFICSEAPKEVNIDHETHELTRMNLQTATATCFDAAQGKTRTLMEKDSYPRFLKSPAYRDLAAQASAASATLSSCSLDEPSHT
Target sequence (P09471 whole entry, looked up): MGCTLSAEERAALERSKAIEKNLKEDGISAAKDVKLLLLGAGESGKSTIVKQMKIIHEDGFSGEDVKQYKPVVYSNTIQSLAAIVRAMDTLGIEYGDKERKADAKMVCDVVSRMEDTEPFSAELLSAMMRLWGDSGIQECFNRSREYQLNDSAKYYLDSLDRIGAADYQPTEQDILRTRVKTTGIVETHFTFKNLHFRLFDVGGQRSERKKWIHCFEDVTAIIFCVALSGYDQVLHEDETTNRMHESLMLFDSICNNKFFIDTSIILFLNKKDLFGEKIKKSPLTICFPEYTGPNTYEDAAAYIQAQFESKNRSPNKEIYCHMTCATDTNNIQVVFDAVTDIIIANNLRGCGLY
PKD1 kinase inh: blocks activity of human protein kinase D1; Q15139; AID 797; inhibition, %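 (about 10 µM by stock and volumes)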; 200,000 tested, 0.056% active; PKD1 kinase fluorescence polarization assay;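 active = inhibition of 50% or more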;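 also: controls were vehicle for no effect and a reference inhibitor for full effect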
INS promoter inh: TRM-6 insulin promoter activity inhibition | TRM-6 cells (human fetal islet line), insulin promoter-eGFP reporter, imaging; reporter expression induced with tamoxifen | inhibition, % at 2 µM | 130,000 tested, 0.9% active | AID 1273;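 active = inhibition above the mean plus 3 SD, with well images judged a real hit on visual review, cut at about 60% in these data, passing the limit was not always enough; inconclusive = inhibition over the cutoff but images rejected on review; inactive = inhibition not above the cutoff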
GALR2 ag: GALR2 (human) receptor agonism; GALR2-expressing cells, agonist activation read-out; activation, %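 (tested at 5 µM)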; 140,000 tested, 0.48% active; AID 803;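 active = above mean plus 3 SD of all compounds, about 5% in these data, not always enough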;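 also: 0% = vehicle buffer wells and 100% = reference agonist at full effect; tested in CHO reporter cells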
Target sequence (O43603 whole entry, looked up): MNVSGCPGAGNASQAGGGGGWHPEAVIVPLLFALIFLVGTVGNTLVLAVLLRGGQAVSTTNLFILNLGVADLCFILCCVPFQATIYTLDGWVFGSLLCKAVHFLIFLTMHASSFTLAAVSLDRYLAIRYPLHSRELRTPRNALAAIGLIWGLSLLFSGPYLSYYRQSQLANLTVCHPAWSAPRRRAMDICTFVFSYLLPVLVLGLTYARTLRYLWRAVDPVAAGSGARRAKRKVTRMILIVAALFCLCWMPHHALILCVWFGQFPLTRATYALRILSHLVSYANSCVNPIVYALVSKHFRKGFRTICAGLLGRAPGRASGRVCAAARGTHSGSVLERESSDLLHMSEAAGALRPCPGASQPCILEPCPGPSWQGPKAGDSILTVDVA
HSV replic up: HSV replication enhancement; 220,000 tested, 0.005% active; maximum fold increase; HSV replication augmentation in cells, fold increase;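 active = peak rise of 1.5-fold or more in the series; inconclusive = self-fluorescent or not available for retest; tested in PC3 cells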;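 also: first round at 10 µM; read as green reporter fluorescence; hits show the peak of a series up to 25 µM; 1 = signal of infected wells without compound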
INS promoter inh cell count: second read-out of INS promoter inh, no call of its own (marks repeat the call); normalized cell count, %; measured here: cell count, toxicity; reference of the scale not given here;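 cells exposed to compound for 48 h; stained nuclei by imaging scaled within each plate; lower means fewer cells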
HSV replic up primary fold: further read-out of HSV replic up, marked with its call; fold increase; compound at 10 µM; measured here: primary screen fold increase 10 uM; tested in PC3 cells;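 GFP signal in the first replicate; 1 = infected wells without compound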
Starred values were filed as active, the others as inactive; i = inactive; ? = inconclusive; nt = not tested or not shown.

Sample of the layout, 4 compounds:
SMILES	RGS16-Gao	PKD1 kinase inh	INS promoter inh	INS promoter inh cell count	GALR2 ag	HSV replic up	HSV replic up primary fold
CC(O)/C=C/c1cccc[n+]1C (stereo not given)	100	2	33	78	0.0	i	0.94
S=C(Nc1ccc(Oc2ccccc2)cc1)N1CCN(c2ccccn2)CC1	89	-5	-65	117	nt	i	1
CCc1cccc2sc(NC(=O)c3ccc(N4C(=O)CCC4=O)cc3)nc12	nt	-7	43	132	-0.2	nt	nt
COC(=O)c1ccc(Oc2c(Cl)cccc2[N+](=O)[O-])cc1	105	-20	40	80	-0.3	i	0.99

This part in full, repeating the preview:
SMILES	RGS16-Gao	PKD1 kinase inh	INS promoter inh	INS promoter inh cell count	GALR2 ag	HSV replic up	HSV replic up primary fold
CC(O)/C=C/c1cccc[n+]1C (stereo not given)	100	2	33	78	0.0	i	0.94
S=C(Nc1ccc(Oc2ccccc2)cc1)N1CCN(c2ccccn2)CC1	89	-5	-65	117	nt	i	1
CCc1cccc2sc(NC(=O)c3ccc(N4C(=O)CCC4=O)cc3)nc12	nt	-7	43	132	-0.2	nt	nt
COC(=O)c1ccc(Oc2c(Cl)cccc2[N+](=O)[O-])cc1	105	-20	40	80	-0.3	i	0.99
O=[N+]([O-])c1ccc(Sc2n[nH]c(-c3ccncc3)n2)nc1	102	-1	14	110	nt	i	1
O=P(COCCO)(c1ccccc1)c1ccccc1	101	-8	nt	nt	0.3	i	1
C=CCn1c(SCC(=O)Nc2ccc(-c3nc4ccc(C)cc4s3)cc2)nnc1-c1ccccc1	100	8	nt	nt	0.3	nt	nt
C=CCNC(=O)CN1CCC(O)(c2ccc(F)cc2)CC1	100	4	nt	nt	-1.1	i	0.86
Cc1ccc(S(=O)(=O)NCc2ccc(C(=O)NCCN(Cc3ccccc3)C(C)C)cc2)cc1	104	-1	43	59	nt	i	0.87
O=C(CN1CCCCCC1)Nc1cccc2c1OCO2	108	-3	20	118	-2.8	i	0.75
COc1ccc(C(=O)Nc2ccc(S(=O)(=O)N3CCCCC3)cc2)cc1OC	101	9	23	88	-2.4	i	0.93
CCCCNC(=O)c1onc(CSc2ccncc2)c1C(=O)NCCCC	99	nt	nt	nt	nt	i	0.66
O=C(CCN1C(=O)c2ccccc2S1(=O)=O)Nc1ccccc1	94	-10	nt	nt	nt	i	1.1
COCCOC(=O)/C(=C\c1cc(C(C)(C)C)c(O)c(C(C)(C)C)c1)C(C)=O	87	nt	nt	nt	nt	i	0.91
Cc1ccc(C)n1C1CCS(=O)(=O)C1 (stereo not given)	87	-18	nt	nt	-0.7	nt	nt

Structures shown so far that contain four or more nitrogen atoms:
SMILES	RGS16-Gao	PKD1 kinase inh	INS promoter inh	INS promoter inh cell count	GALR2 ag	HSV replic up	HSV replic up primary fold
S=C(Nc1ccc(Oc2ccccc2)cc1)N1CCN(c2ccccn2)CC1	89	-5	-65	117	nt	i	1
O=[N+]([O-])c1ccc(Sc2n[nH]c(-c3ccncc3)n2)nc1	102	-1	14	110	nt	i	1
C=CCn1c(SCC(=O)Nc2ccc(-c3nc4ccc(C)cc4s3)cc2)nnc1-c1ccccc1	100	8	nt	nt	0.3	nt	nt
CCCCNC(=O)c1onc(CSc2ccncc2)c1C(=O)NCCCC	99	nt	nt	nt	nt	i	0.66

New compounds follow:
SMILES	RGS16-Gao	PKD1 kinase inh	INS promoter inh	INS promoter inh cell count	GALR2 ag	HSV replic up	HSV replic up primary fold
COc1ccc2c(c1)[nH]c1c(=O)n(/N=C/C3C(C)C=C(C)CC3C)c(=O)[nH]c12 (stereo not given)	101	7	0	96	nt	i	0.89
COc1ccc(NC(=O)COc2ccc3oc(=O)cc(C)c3c2)cc1	99	nt	nt	nt	nt	i	0.93
COc1ccc(/C=N/NC(=O)CSCC(=O)Nc2ccccc2)cc1OC	102	-8	24	61	-1.3	i	0.79
Cc1cc(NS(=O)(=O)c2ccc(N)cc2)no1	109	-21	45	72	-1.8	i	0.94
Cc1sc2c(c1C)CN(CCN1CCOCC1)CN2C(=O)c1ccccc1	102	-5	50	130	nt	i	1.1
COc1cc(SC)ccc1C(=O)NCCCOC(C)C	93	-3	46	121	-3.4	i	1.1
CC(C)CNC(=O)CC(=O)N/N=C/c1ccc(F)cc1	105	-3	24	145	-1.6	i	0.98
NS(=O)(=O)c1ccc(N=Cc2ccc(Br)s2)cc1	107	-3	-28	127	-0.1	i	0.9
Fc1ccc(CNC(=S)NC2CCCCCC2)cc1	104	-7	26	117	nt	i	1.1
COc1ccc(Nc2ncc(F)c(N3CCOCC3)n2)cc1	101	0	nt	nt	nt	i	0.89
CN1CCN(C2=Nc3c(Cl)cc(Cl)c4cccc2c34)CC1	94	0	nt	nt	nt	i	1.2
Cc1c(N2C(=O)C(=O)/C(=C(/O)c3ccc(Cl)cc3)C2c2ccccc2)c(=O)n(-c2ccccc2)n1C (stereo not given)	103	-8	-3	100	-1.4	i	0.91
CC(C)(C)NC(=O)CN(Cc1cccs1)C(=O)CNS(=O)(=O)c1ccccc1	106	-4	-4	103	-0.4	i	0.95
CC(Nc1c([N+](=O)[O-])c(=O)oc2ccccc12)C(Cl)c1ccccc1 (stereo not given)	94	-9	nt	nt	-2.9	i	0.93
O=C(O)c1ccccc1Sc1ccccc1S(=O)(=O)NC1CCCCC1	-4.7*	nt	nt	nt	nt	i	1
COc1cccc(CNC(=O)Cn2cc3c(n2)CCCCC3)c1	106	-15	nt	nt	nt	i	0.86
Cc1ccc(N2NC(=O)/C(=C/c3ccc(-c4ccc(Cl)c(C(=O)O)c4)o3)C2=O)cc1C	102	-2	nt	nt	nt	nt	nt
O=C(NCCCN1CCOCC1)c1sc2cc(Cl)ccc2c1Cl	97	0	8	107	nt	i	0.86
CCOC(=O)c1[nH]nc2c1C(=O)N(CC)C2=O	104	-15	nt	nt	-1.4	i	1
O=C(CSc1nnc(COc2ccccc2)o1)NCCc1ccccc1	56	-11	17	84	-1.2	i	0.93
CC1(C)C(=O)OC(c2cccc([N+](=O)[O-])c2)C2(CCCCC2)C1=O (stereo not given)	95	-7	nt	nt	nt	i	0.97
Cc1ccccc1NCC(=O)N/N=C/c1ccc([N+](=O)[O-])cc1	42	-3	nt	nt	-0.6	i	1
COC(=O)c1cc2cc(NS(=O)(=O)c3ccc(C)cc3)ccc2s1	105	-9	67	100	-0.7	i	0.73
COc1ccc(CCNC(=O)C(C)Sc2ccc(C)cc2)cc1OC (stereo not given)	100	-9	-40	133	0.2	i	0.99
CC(C)(C)NCCOc1ccc(Br)cc1	100	0	4	122	0.2	i	0.89
Brc1ccc(N/N=C(/N=Nc2nn[nH]n2)c2ccccc2)cc1	110	12	nt	nt	nt	i	0.71
CCC(=O)NC(=S)Nc1ccc(NC(=O)c2ccc(C)c([N+](=O)[O-])c2)cc1	102	5	0	93	-0.2	i	0.83
CCOc1ccccc1NC(=O)CSc1nc2cccnc2n1C	82	-2	-38	121	-1.1	i	0.84
O=C(CN1CCC(n2nnc3cc(F)ccc32)CC1)Nc1ccc2c(c1)CCC2	nt	3	-50	241	-1.0	i	0.89
N#Cc1ccc(NC(=O)COC(=O)C2Cc3ccccc3CN2C(=O)c2ccccc2)cc1 (stereo not given)	86	-12	3	98	-0.1	i	1
O=C(Nc1ccnc(-c2ccncc2)n1)c1cccs1	104	5	-82	97	nt	i	1.1
CN(C)/C=C1\C(=O)N(C)N=C1C(F)(F)F	99	2	54	93	nt	i	0.92
Cc1ccc2nc(-c3ccc(NC(=O)CN4CCN(c5ccccn5)CC4)cc3)sc2c1	102	nt	nt	nt	nt	i	0.79
Cc1nn(-c2ccccc2)c(N2CCCC2)c1/C=C1\N=C(c2ccccc2)OC1=O	98	-15	-11	108	-1.2	i	1
COc1ccc2cc(S(=O)(=O)c3ccccc3)c(=O)oc2c1	121	nt	nt	nt	nt	i	0.92
COc1cc(C2NC(=O)NC3=C2C(=O)OC3)cc(OC)c1OC (stereo not given)	90	nt	nt	nt	nt	i	0.84
COc1ccc(CCC(=O)Nc2cccc(S(=O)(=O)N(C)C)c2)cc1OC	88	4	29	82	-1.8	i	1.1
O=C(CCCC(=O)OCC(Cl)=C(Cl)Cl)Nc1cccc2ccccc12	101	-4	6	126	-2.2	i	0.99
CC(=O)NCC(=O)OCC(=O)c1ccc(Cl)cc1	160	-4	nt	nt	nt	i	0.93
CN(C)/C=N/c1nc2ncc(-c3ccc(Cl)cc3)c(/N=C/N(C)C)n2n1	99	2	0	78	nt	i	0.93
CCN(CC)CCCNC(=O)c1cc2c(Cl)nc3ccccc3c2s1	97	-4	nt	nt	nt	i	0.63
O=C(O)COc1ccc2c3c(c(=O)oc2c1)CCCC3	105	-8	40	83	nt	i	0.95
Cn1c(N)c(C(=O)COC(=O)/C=C/c2ccc(S(=O)(=O)N3CCOCC3)cc2)c(=O)n(C)c1=O	84	nt	nt	nt	nt	i	0.93
CCOC(=O)CSc1nc(C)cc2c1C(=O)OC2	102	-3	nt	nt	nt	i	1
Cc1cc(C)n2nc(Nc3ccccc3)cc2n1	101	-11	64	69	-0.8	i	0.83

Looked up above.
RGS16-Gao result of COc1ccc2cc(S(=O)(=O)c3ccccc3)c(=O)oc2c1 : 121
HSV replic up primary fold result of CN(C)/C=C1\C(=O)N(C)N=C1C(F)(F)F : 0.92
RGS16-Gao result of Cc1ccc2nc(-c3ccc(NC(=O)CN4CCN(c5ccccn5)CC4)cc3)sc2c1 : 102
RGS16-Gao result of COc1cc(C2NC(=O)NC3=C2C(=O)OC3)cc(OC)c1OC (stereo not given) : 90

(continued)
SMILES	RGS16-Gao	PKD1 kinase inh	INS promoter inh	INS promoter inh cell count	GALR2 ag	HSV replic up	HSV replic up primary fold
N#Cc1c(NC(=O)CSCC(=O)O)sc2c1CCCC2	109	-3	9	117	0.6	i	0.91
Cc1ccccc1-n1c(SCC(=O)N/N=C/c2ccccc2OCC(=O)O)nc2ccccc2c1=O	96	nt	nt	nt	nt	i	1
O=C1CC(NCCc2ccccc2)C(=O)N1CCc1ccccc1 (stereo not given)	100	nt	nt	nt	nt	i	1.1
COc1ccc(C(=O)COc2ccc(F)cc2)c(O)c1	102	nt	nt	nt	nt	i	0.85
CSc1cccc(NC(=O)C2CCCN(S(=O)(=O)c3ccc(F)cc3)C2)c1 (stereo not given)	97	2	55	110	-2.8	i	0.95
O=Cc1sc(Nc2ccccc2)nc1Cl	101	-7	-245	137	nt	?	nt
COC(=O)CSc1[nH]c2cc(C)ccc2c1[N+](=O)[O-]	103	-3	nt	nt	nt	i	0.96
Nc1c(N2CCCCC2)c(=O)[nH]c(=O)n1-c1ccccc1	102	4	-14	71	-1.7	i	0.87
CCC(=O)Nc1cccc(NC(=O)c2ccc3c(c2)OCO3)c1	113	-14	nt	nt	0.7	i	0.84
CCc1ccc(NC(=O)Cn2nnc(-c3ccc(C)cc3-n3cnnn3)n2)cc1	96	nt	nt	nt	nt	i	0.88
CCN1CCN(C(=O)CN(C)S(=O)(=O)c2ccc(OC)cc2)CC1	127	-6	-42	64	-0.8	i	0.92
Cc1cccc(-n2c(CCN3C(=O)c4ccccc4C3=O)nc3ccccc3c2=O)n1	105	0	-4	73	-0.8	i	1
COc1ccc(C)cc1Nc1nc(-c2c(C)[nH]c3ccccc23)cs1	110	-14	4	69	0.0	i	1
O=C(NCCN=C1NS(=O)(=O)c2ccccc21)c1ccc(S(=O)(=O)N2CCOCC2)cc1	105	-5	-93	111	-1.8	i	0.92
Cc1nn(Cc2ccccc2)c(Cl)c1C(=O)NC(C)(C)C	94	-6	50	164	-0.9	i	0.95
Cc1ccc(S(=O)(=O)N2CCOCC2)cc1C(=O)Nc1ccc(S(=O)(=O)Nc2nccs2)cc1	104	-7	nt	nt	nt	i	1
CCOc1ccc(Cl)cc1CNc1nnnn1C	100	0	nt	nt	nt	i	1.1
CCOC(=O)/C=c1\s/c(=C\c2ccccc2OC)c(=O)n1CC(=O)N1CCOCC1	72	13	-79	48	1.1	i	0.9
COc1cccc2c1OCC(CN1CCN(C3CCCCC3)C(CCO)C1)=C2 (stereo not given)	170	-5	nt	nt	nt	i	0.93
Cc1ccc(C(=O)NCCN(C)C)cc1C	100	-5	27	173	-1.5	i	1.2
CN1CCCc2cc(C=O)ccc21	98	8	-397	43	-2.7	i	0.92
CCOc1ccc(N2CC(O)(c3ccc(F)cc3)[N+]3=C2CCCC3)cc1 (stereo not given)	102	-1	nt	nt	nt	i	1.1
CC(=O)OCC1CCCC2=C(C)C(=O)CCC21COC(C)=O (stereo not given)	107	4	42	155	-0.8	i	1.2
Cc1cccc2cc(C3CC(c4ccco4)=NN3S(=O)(=O)c3ccccc3)c(Cl)nc12 (stereo not given)	101	0	44	165	-1.3	i	1
Nc1ccc(C(=O)OCC(=O)N2c3ccccc3Sc3ccccc32)cc1[N+](=O)[O-]	115	-5	14	73	-1.2	i	0.81
Cc1cc(C)n(-c2ccc(C(=O)NC3=NCCS3)cc2)n1	108	-12	nt	nt	-0.3	i	1.1
